# Screening results deposited in PubChem by National Center for Advancing Translational Sciences (NCATS).
# Rango-impB inh: qHTS Assay for Inhibitors of Rango (Ran-regulated importin-beta cargo) - Importin beta complex formation. hit rate 0.031% among 340,000. AID 540263, 2011. Importin subunit beta-1 (Homo sapiens), Q14974. Potency, µM (doses to about 92.2 µM), for the others: top-dose inhibition of complex formation. Rango CFP/YFP FRET sensor + importin beta, 45 min; active = rising FRET ratio curve, often small or poorly fitted; inconclusive = mostly compound fluorescence or quenching in the first reads; inactive = flat curves in all reads;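 note: potency is the fitted concentration of half-maximal effect; 0% = DMSO wells and 100% = buffer wells lacking importin beta; nearly all actives have a fitted effect of over 15% in size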
#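 Inhibition scored from the CFP 486 nm/YFP 530 nm FRET ratio 45 min after adding 0.125 microM importin beta to 50 nM Rango biosensor preincubated 5 min with compound (room temperature, PBS with DTT, Tween-20, BSA). No-importin wells as positive control.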
# miR-21 FLuc: qHTS Assay for Modulators of miRNAs and/orActivators of miR-21. HeLa miR-21 FLuc reporter, luciferase, 48 h. Potency, µM (highest dose often 38.3 µM), without a hit: at the highest dose reporter change, positive = more light. 340,000 tested, under 10 active; active = well fitted rising curve with a large enough effect; inconclusive = small, poorly fitted or top-dose-only effect; inactive = no such curve, though single readings can be large or run the other way;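 note: % of control where 0% means no effect; miR-21 action dims this reporter so a rising signal means less miR-21 action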
#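 HeLa miR-21-FLuc reporter line, endogenous miR-21; 2000 cells/well in DMEM/10% FBS; compound titration up to ~40uM final, 48 h, 37 degree Celsius; luciferase detection reagent, 15 min lysis, CCD luminescence.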
# Rango dissoc inh: qHTS Assay for Inhibitors of RanGTP induced Rango (Ran-regulated importin-beta cargo) - Importin beta complex dissociation. Snurportin-1 (Homo sapiens) + GTP-binding nuclear protein Ran (Homo sapiens) + Importin …. hit rate 0.071% among 340,000. Biochemical FRET Rango-importin beta, RanGTP-induced dissociation. Potency, µM (series often up to 46.1 µM), for inactives: at the highest dose activity change, negative = inhibition; active means falling FRET ratio curve, often poorly fitted, with flat reads before Ran was added; inconclusive means other falling curves, or compound fluorescence or quenching; inactive means flat or rising ratio curve;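 note: potency is the fitted concentration of half-maximal effect; % of control where 0% means no effect; nearly all actives have a fitted effect of over 45% in size; -100% = wells without RanGTP and RCC1; the record marks most hits as doubtful in a second field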
#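 FRET read at 45 min, room temperature: inhibitors block the CFP/YFP signal rise when RanGTP (0.6 uM Ran, 2 mM GTP, 0.2 uM RCC1) frees Rango (0.1 uM) from importin beta (0.25 uM). Pre-read after 5 min compound exposure flags interference.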
# GLA inh pH 4.5: qHTS Assay for Inhibitors of Human alpha-Galactosidase at pH 4.5; activity change, negative = inhibition, % at 105 µM; 230,000 tested, under 10 active; purified enzyme, 4-MU-alpha-Gal fluorescence, pH 4.5; Alpha-galactosidase A (Homo sapiens), P06280; AID 1467, 2008; inconclusive = small, poorly fitted or top-dose-only inhibition, or a rising curve; inactive = flat fitted curve, though single readings scatter; no compound was filed as active;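 note: 0% = full activity with enzyme and -100% = basal without enzyme; dose as in the result columns while the protocol names 77 µM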
# Target sequence (P06280 whole entry, looked up): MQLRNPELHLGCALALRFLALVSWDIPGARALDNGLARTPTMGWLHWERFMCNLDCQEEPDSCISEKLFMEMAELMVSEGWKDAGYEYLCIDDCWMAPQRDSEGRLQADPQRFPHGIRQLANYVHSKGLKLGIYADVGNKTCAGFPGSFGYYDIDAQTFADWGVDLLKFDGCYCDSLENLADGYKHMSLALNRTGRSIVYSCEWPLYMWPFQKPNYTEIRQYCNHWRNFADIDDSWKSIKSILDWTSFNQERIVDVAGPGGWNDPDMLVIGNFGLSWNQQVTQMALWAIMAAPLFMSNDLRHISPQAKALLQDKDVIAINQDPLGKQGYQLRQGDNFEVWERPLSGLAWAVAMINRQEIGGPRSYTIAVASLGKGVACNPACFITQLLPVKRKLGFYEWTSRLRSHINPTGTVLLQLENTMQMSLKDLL
# Starred values were filed as active, the others as inactive; ? = inconclusive; · = not tested or not shown; & = joins results of further samples.
SMILES,Rango-impB inh,miR-21 FLuc,Rango dissoc inh,GLA inh pH 4.5
COCCNC(=O)c1ccc(-c2csc(C)n2)cc1,-1.4%,-48%,-15%,1
CC(C)OCCCNC(=O)NC12CC3CC(CC(C3)C1)C2,-0.2%,-32%,15%,0
CC1=NNC(=O)C1CCC(=O)N/N=C/c1c(Cl)cccc1Cl (stereo not given),1.4%,-3%,8%,2
O=C(CN1C(=O)COc2ccccc21)NCCN1CCC(Cc2ccccc2)CC1,-2.5%,-1%,-3%,-1
Cc1ccc(NC(=O)CN2C(=O)C3CC=CCC3C2=O)cc1S(=O)(=O)N1CCOCC1 (stereo not given),0.1%,-2%,-1%,8
CCC/C=N/NC(=O)c1cccc(Br)c1,-1.8%,-13%,4%,2
CC(C)NC(=O)CSCc1cccc(Br)c1,-2.9%,-8%,0%,-1
Cc1cc(C)cc(-n2nnc(C(=O)NCc3ccccc3Cl)c2N)c1,-1.0%,-2%,-10%,-6
CC(=O)c1cc(C)c(OC(=O)c2ccccc2)c(C)c1,-0.2%,·,-8%,·
O=C(CCC(=O)c1ccccc1)NCCc1c[nH]c2ccccc12,0.5%,-4%,-23%,2
CCN(CC(=O)NC(C)(C)C)Cc1nc2c(Br)cc(Br)cc2c(=O)[nH]1,0.1%,3%,-8%,-3
CCOc1cc(/C=N/NC(=O)C(OC)c2ccccc2)ccc1O (stereo not given),0.8%,0%,6%,·
COc1ccc(OC)c(-n2c(-c3cc(-c4ccc(F)cc4)n[nH]3)n[nH]c2=S)c1,-0.5%,-33%,3%,2
COc1nc(N)nc(NC23CC4CC(CC(C4)C2)C3)n1,-0.2%,-60%,8%,-15
Cc1cccc(NS(=O)(=O)c2cccc(C(=O)NCC3(N4CCOCC4)CCCCC3)c2)c1,-3.6%,·,2%,·
CCOCCCN1C(=O)C2C(C(=O)Nc3ccc(OCC)cc3)C3C=CC2(O3)C1C(=O)NC1CCCCC1 (stereo not given),-0.9%,11%,4%,·
COc1ccc(OC)c(/C=C/C(=O)OCC(=O)Nc2ccc3c(c2)OCCO3)c1,?,6%,?,25
CCC(C(=O)OCC(=O)Nc1ccc(C(N)=O)cc1)c1ccccc1 (stereo not given),0.0%,1%,0%,7
COc1ccc(OC)c(-c2cc(C(=O)NCCN3CCOCC3)no2)c1,0.9%,-16%,-11%,-1
Cc1nn(C(C)(C)C)c(OC(=O)c2cccs2)c1S(=O)(=O)c1ccccc1,0.0%,0%,-9%,-16
COc1ccc(CCNC(=O)C2CCCN2S(=O)(=O)c2ccc(F)cc2)cc1OC (stereo not given),1.2%,-2%,10%,4
C[C@@H]1CCC[C@@]2(O[C@H](CCO)C[C@H](O)[C@H]2O)O1,-4.3%,·,1%,·
Cc1cc2c(cc1S(=O)(=O)N1CCN(c3ccccc3)CC1)OCC(=O)N2,5.3%,0%,11%,·
O=C(CNC(=O)c1ccc2c(c1)OCCO2)N/N=C/c1cccc(Br)c1,2.3%,-6%,-5%,-1
COc1ccc(S(=O)(=O)N2CCOCC2)cc1C(=O)N1CCCCC1,0.9%,-3%,0%,·
# Later entries:
SMILES,Rango-impB inh,miR-21 FLuc,Rango dissoc inh,GLA inh pH 4.5
Cc1ccc(-c2n[nH]c(=O)c3ccccc23)c(C)c1,-1.8%,5%,-2%,·
O=C(NCCCNCCCNC(=O)c1ccc(/C=N/O)nc1)c1ccc(/C=N/O)nc1,-4.1%,6%,-10%,5
COc1ccc(CCNC(=O)COC(=O)C2COc3ccccc3O2)cc1 (stereo not given),-1.8%,·,-11%,·
O=C(c1ccc(Br)cc1)c1sc(N2CCOCC2)nc1-c1ccccc1,-3.5%,-1%,-9%,-4
Cc1ccc(-n2ccnc2SCC(=O)N(CC(C)C)C2CCS(=O)(=O)C2)c(C)c1 (stereo not given),-2.3%,-15%,3%,0
COc1ccc2cc(C(=O)Nc3ccc(S(N)(=O)=O)cc3)sc(=O)c2c1OC,?,-4%,1%,·
Cc1nc(/C(N)=N/OC(=O)Cc2ccccc2)no1,-2.4%,-18%,-6%,4
Cc1ccc(Cn2cccc2/C=N/NC(=S)Nc2ccc(C)cc2)cc1,-0.4%,-4%,34%,5
O=C(c1c[nH]c2ccc(S(=O)(=O)N3CCC4(CC3)OCCO4)cc2c1=O)N1CCOCC1,0.6%,-4%,-1%,22
CC(C)CCC(CCN1CCOCC1)c1ccc2c(c1)OCO2 (stereo not given),-3.9%,-2%,10%,7
Cc1ccc(C)c(C(=O)Nc2c(C(N)=O)oc3ccccc23)c1,-0.8%,9%,27%,-3
COc1ccc(OCCNS(=O)(=O)Cc2ccccc2)cc1,1.3%,-10%,-20%,3
Cc1nn(C(C)C(=O)NCCc2ccccc2)c(=O)c2cc3occc3n12 (stereo not given),0.2%,-14%,0%,·
Cc1ccc(-n2[nH]c(C)c(C=Nc3ccc4[nH]c(=O)[nH]c4c3)c2=O)cc1,?,-13%,?,-3
NC(=O)CN1C(=O)C(=O)N(Cc2cccc(Cl)c2)C1=O,0.1%,-8%,0%,·
Nc1nc(-c2ccccc2)c(C(=O)Nc2ccccc2)s1,-3.0%,-20%,0%,3
COC(=O)c1cn(CC(=O)NC2CCCCCC2)c2ccccc12,2.1%,-7%,3%,4
CC(C)(C)c1ccc(OCc2ccc(C(=O)N/N=C3\CC4CC=CC34)cc2)cc1 (stereo not given),0.0%,-2%,4%,-3
CCc1nc(Nc2ccc(NC(C)=O)cc2)c2oc3ccccc3c2n1,-0.4%,10%,7%,·
CC(C)CCNC1=CC(=O)CC(c2ccccc2)C1 (stereo not given),-2.4%,24%,0%,13
CCOc1ccc(NC2CCCCC2NS(=O)(=O)c2ccccc2)cc1 (stereo not given),-1.5%,1%,27%,·
Cn1cnc([N+](=O)[O-])c1N=C(N)N,-4.0%,1%,-5%,-6
Cc1ccc(N=C2NC(=O)/C(=C\c3ccc(C)s3)S2)cc1,?,-4%,8%,12
Cc1ccc(CNC(=O)CCCNS(=O)(=O)c2cccc3nonc23)cc1,-3.5%,-8%,15%,-5
O=C(Nc1ccc(OC(F)(F)F)cc1)c1cnccn1,-0.3%,-41%,-9%,·

# In the list so far, three have a tert-butyl group.
SMILES,Rango-impB inh,miR-21 FLuc,Rango dissoc inh,GLA inh pH 4.5
CCN(CC(=O)NC(C)(C)C)Cc1nc2c(Br)cc(Br)cc2c(=O)[nH]1,0.1%,3%,-8%,-3
Cc1nn(C(C)(C)C)c(OC(=O)c2cccs2)c1S(=O)(=O)c1ccccc1,0.0%,0%,-9%,-16
CC(C)(C)c1ccc(OCc2ccc(C(=O)N/N=C3\CC4CC=CC34)cc2)cc1 (stereo not given),0.0%,-2%,4%,-3

# Returning to the listing with the three entries that preceded the break.
SMILES,Rango-impB inh,miR-21 FLuc,Rango dissoc inh,GLA inh pH 4.5
Cc1ccc(N=C2NC(=O)/C(=C\c3ccc(C)s3)S2)cc1,?,-4%,8%,12
Cc1ccc(CNC(=O)CCCNS(=O)(=O)c2cccc3nonc23)cc1,-3.5%,-8%,15%,-5
O=C(Nc1ccc(OC(F)(F)F)cc1)c1cnccn1,-0.3%,-41%,-9%,·
O=S(=O)(Nc1cccnc1)c1ccc(Cl)c(C(F)(F)F)c1,3.7%,-3%,-16%,10
Cc1c(C(=O)O)sc2nc(SCC(=O)Nc3ccc(S(=O)(=O)NC(C)(C)C)cc3)[nH]c(=O)c12,3.1%,2%,41%,8
Cn1c(=O)c(C(=S)NC(=O)C2CC2)c(N)n(Cc2ccccc2)c1=O,·,-3%,·,-5
C=CCn1c(SCC(N)=O)nc2scc(-c3ccc(C)o3)c2c1=O,0.7%,-83%,1%,6
c1ccc(C2[C@H]3CN(CC4CCCCC4)[C@H](c4ccccc4)C34CC2(c2ccccc2)C4)cc1 (stereo not given in full),4.8%,-5%,21%,4&0
C/C(=N/NC(=O)CSc1nc2ccccc2n1C)c1ccncc1,0.7%,-5%,1%,1
Clc1ccc(-c2c[n+](Cc3ccc(Cl)cc3Cl)c3n2CCCCC3)cc1,-0.6%,?,0%,-6
COc1ccc(OCCCN(C)Cc2ccccc2)cc1,0.2%,-3%,28%,·
COc1cccc(NC(=O)COC(=O)C2CC(=O)N(c3ccc(C)cc3)C2)c1 (stereo not given),-1.5%,·,-1%,·
COc1c(OC)c2[nH]c(=O)cc3c4ccccc4n(c1=O)c23,?,·,?,·
Cc1nn2c(N)c(-c3ccccc3)cnc2c1-c1ccc(Cl)cc1,0.1%,-50%,-10%,·
CCOC(=O)C1CCCN(Cc2nc(N)nc(Nc3ccc(Cl)cc3)n2)C1 (stereo not given),-4.4%,19%,0%,-3
C=C(C)c1cccc(C(C)(C)NC(=O)N2CCN(c3ccccc3)CC2)c1,-1.8%,1%,-15%,9
COc1cccc(C(=O)/C=C/Nc2ccc(S(=O)(=O)Nc3cccc(C(C)=O)c3)cc2)c1,?,?,?,-7
COc1ccc(CNC(=O)[C@H](C)NC(=O)[C@@H]2Cc3ccccc3CN2)cc1,0.6%,-1%,-1%,·
Cc1cc2nc(-c3ccc(NC(=O)C(C)C)cc3)oc2cc1C,-2.1%,-68%,16%,-3
COC1=CC(=O)OC(c2ccc(OC)cc2)C1 (stereo not given),0.9%,·,-26%,·
CSc1ccc(S(=O)(=O)NCc2ccc(C)cc2)cc1,-2.8%,-2%,-1%,-4
O=C(O)c1nn(-c2ccccc2C(F)(F)F)cc1O,-3.4%,0%,-4%,-3
CCOc1c2ccc(C(=O)NCC34CC5CC(CC(C5)C3)C4)cc2nn1CC,-0.5%,-14%,-1%,6
C/C(=N\NC(=O)COc1cccc(C)c1)c1ccc2ccccc2c1O,?,-1%,?,·
COC(=O)c1ccc(CCc2cc(O)ccc2O)cc1,2.2%,·,1%,·
COc1ccc(S(=O)(=O)N2CCOCC2)cc1NC(=O)CCCOc1ccc(Cl)cc1C,-1.1%,·,-20%,·
Cc1cc(Oc2ccc(-c3ccccc3)cc2)n2ncnc2n1,-1.0%,-18%,19%,5
COc1ccc(CCN(C)C/C=C/c2ccccc2)cc1OC,2.0%,-8%,0%,·
# Next part.
SMILES,Rango-impB inh,miR-21 FLuc,Rango dissoc inh,GLA inh pH 4.5
Cc1cc(C)cc(NC(=O)C2C3C=CC(O3)C2C(=O)O)c1 (stereo not given),0.6%,-3%,0%,·
CCc1ccccc1N(CC(=O)NCC1CCCO1)C(=O)CCC(=O)Nc1nccs1 (stereo not given),3.2%,-2%,-1%,·
CCOC(=O)c1cc2c(s1)-c1c(C)cccc1OC2,-0.4%,-38%,-17%,?
O=C1c2cccc3cccc(c23)C(=O)N1OS(=O)(=O)c1ccccc1,0.0%,-17%,-5%,-21
COC(=O)c1cc(NC(=O)/C=C/c2ccc3c(c2)OCO3)cc(C(=O)OC)c1,0.1%,-17%,21%,4
COc1ccc(CN(CCC#N)CCC2(c3ccccc3)CC(C)N(C)CC2C)cc1OC (stereo not given),-1.6%,-5%,5%,-2
CN1CCN(c2nc(-c3ccccc3)ncc2S(C)(=O)=O)CC1,0.5%,-6%,15%,·
CCOc1ccccc1N(CC(=O)N1CCCC1)S(C)(=O)=O,?,-3%,5%,·
C/C(=N\NC(=O)C(=O)Nc1c(C)n(C)n(-c2ccccc2)c1=O)c1ccc(Cl)s1,0.4%,3%,-5%,-1
O=C1c2ccccc2C(=O)c2c1ccc(O)c2O,?,·,2%,-9&-1
CCOc1cc2c(cc1OCC)C(c1ccc(O)c(OC)c1)NCC2 (stereo not given),-1.1%,·,2%,·
COc1ccc(Nc2nc(-c3sc(C)nc3C)cs2)c(OC)c1,0.1%,-5%,6%,·
COc1ccc(N2CCC(CNC(=O)Nc3ccccc3)C2)cc1 (stereo not given),6.6%,3%,-14%,2
COc1ccc(-c2noc(-c3cccs3)n2)cc1OC,-0.6%,-72%,-7%,10

# This is a subset; the hit share may differ from the screen's.
